High-throughput results (PubChem)
ClpP mod: qHTS Assay for Activators of ClpP. hit rate 1.9% among 340,000. ATP-dependent Clp protease proteolytic subunit (Bacillus subtilis (strain 168)), P80244. purified B. subtilis ClpP, FRET peptide cleavage, 20 min. Potency, µM (doses to about 57.5 µM), inactives show top-dose activity change, negative = active. AID 651965, 2013; active = well fitted falling curve with a large enough effect; inconclusive = small, poorly fitted or top-dose-only effect; inactive = no such curve, though single readings can be large or run the other way; note: the source files actives as falling curves though it sought activators and does not explain the sign; nearly all actives have a fitted effect of over 65% in size; many hits overshoot -100%
Target sequence (P80244 whole entry, looked up): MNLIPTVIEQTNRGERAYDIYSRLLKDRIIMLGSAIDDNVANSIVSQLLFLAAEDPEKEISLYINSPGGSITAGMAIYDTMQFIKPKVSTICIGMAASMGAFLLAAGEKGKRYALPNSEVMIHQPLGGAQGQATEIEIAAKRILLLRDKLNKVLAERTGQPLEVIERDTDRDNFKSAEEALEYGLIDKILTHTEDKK
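FRET quenching reversal measured ClpP activation: 10 microg/mL B. subtilis ClpP at pH 8 with the FRET-FV decapeptide, read at 430 nm after 320 nm excitation. The 20-min minus 0-min signal was scaled between DMSO/no-enzyme wells and ADEP (5.8 microM final).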
gsp antagonist: qHTS for Antagonists of gsp, the Etiologic Mutation Responsible for Fibrous Dysplasia/McCune-Albright Syndrome: qHTS. hit rate 0.4% among 340,000. Potency, µM (highest dose often 76.9 µM), for the others: top-dose activity change, negative = inhibition, actives largely listed as inhibitors. gsp-mutant cells, cAMP HTRF, 30 min; control for the full effect not named in the record; active = falling curve of any shape with a large fitted effect; inconclusive = falling curve, mostly with a smaller effect; inactive = flat or rising curve; cell line not stated here;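 note: intracellular cAMP measured with PDE inhibitor Ro 20-1724 present during compound exposure; % is set by controls: 0 for no effect and ±100 for the full control effect; nearly all actives have a fitted effect of over 65% in size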
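Measurement of cellular cAMP by homogeneous time-resolved fluorescence following a 30 min compound exposure at 37C. The PDE inhibitor […] was present throughout; the assay buffer was DPBS with 0.05% BSA and 0.005% Tween 20.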
gsp agonist: qHTS for Agonist of gsp, the Etiologic Mutation Responsible for Fibrous Dysplasia/McCune-Albright Syndrome: qHTS | Potency, µM (titrated, usually from 76.9 µM), for the others: top-dose activation (cAMP increase), usual class: activators | gsp mutant cells, cAMP HTRF, 30 min; control for the full effect not named in the record | hit rate 0.13% among 340,000; active = well fitted activation curve with a large enough effect; inconclusive = small, poorly fitted or top-dose-only effect, or another doubt; inactive = no such curve, though single readings can be large or run the other way; cell line not stated here;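 note: phosphodiesterase inhibitor Ro 20-1724 added with compounds to block cAMP breakdown; nearly all actives have a fitted effect of over 60% in size; about a fifth of the inactives were tested at one dose only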
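Cells in DMEM/10% FBS with G418 were pretreated with compounds in DMSO plus […] (300 uM stock) for 30 min at 37C. cAMP was measured by HTRF (cAMP-d2 plus anti-cAMP antibody-K) after 30 min at room temperature.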
Numbers without * were called inactive; u = inconclusive; x = no result given; [ ] = remark or other dose. Potency is the fitted concentration of half-maximal effect. Not all compounds are listed (hit frequency here may not be typical).

Results follow in this order: ClpP mod, gsp antagonist, gsp agonist
O=C1NC(Cc2ccccc2)c2nc3cc(F)c(F)cc3c(=O)n2-c2cc3ccccc3cc21 (stereo not given)
 : -13%, x, -30%[inhibitor]
C[C@@H]1CN([C@@H](C)CO)C(=O)CCCn2nncc2CO[C@H]1CN(C)Cc1ccc2cccnc2c1
 : 1.7%, x, 0%
CSC[C@H]1CN(CCc2ccccc2)C(=O)[C@@H]1CC(=O)Nc1ccc(Br)cc1
 : 1.0%, x, 27%
O=C(C[C@H]1C(=O)N(C2CCCCC2)C[C@@H]1c1ccccc1)Nc1ccc(Br)cc1
 : -3.3%, x, 12%
Cc1noc(C)c1S(=O)(=O)N(C)C[C@H]1OCc2cn(nn2)CCCC(=O)N([C@@H](C)CO)C[C@@H]1C
 : -1.9%, x, u
CC(C)CC1C(=O)N(Cc2cn(Cc3ccco3)nn2)CCS(=O)(=O)N1Cc1ccc(-c2ccc(F)nc2)cc1 (stereo not given)
 : -0.4%, x, -22%
CCOC(=O)CCCCCC(=O)Nc1ccc2c(c1)C(=O)N([C@@H](C)CO)C[C@H](C)[C@H](CN(C)C(=O)c1ccccc1)OCCCC[C@H](C)O2
 : 0.1%, x, u
C[C@@H]1CCCCO[C@H](CN(C)C(=O)Nc2ccccc2)[C@@H](C)CN([C@H](C)CO)C(=O)c2cc(NS(=O)(=O)c3cn(C)cn3)ccc2O1
 : 1.3%, x, 17%
COc1cccc(CNC[C@H]2O[C@@H](n3ccc(N)nc3=O)[C@H](O)[C@@H]2O)c1OCc1ccc(F)cc1Cl
 : -1.1%, x, -36%[inhibitor]
COc1ccc([C@H]2C[C@H](O)[C@@H](n3cc(C4CC4)nn3)CN2C(=O)C2CCCCC2)cc1
 : 0.8%, x, -22%

Next part (7 carried over from the part before).
Results follow in this order: ClpP mod, gsp antagonist, gsp agonist
O=C(C[C@H]1C(=O)N(C2CCCCC2)C[C@@H]1c1ccccc1)Nc1ccc(Br)cc1
 : -3.3%, x, 12%
Cc1noc(C)c1S(=O)(=O)N(C)C[C@H]1OCc2cn(nn2)CCCC(=O)N([C@@H](C)CO)C[C@@H]1C
 : -1.9%, x, u
CC(C)CC1C(=O)N(Cc2cn(Cc3ccco3)nn2)CCS(=O)(=O)N1Cc1ccc(-c2ccc(F)nc2)cc1 (stereo not given)
 : -0.4%, x, -22%
CCOC(=O)CCCCCC(=O)Nc1ccc2c(c1)C(=O)N([C@@H](C)CO)C[C@H](C)[C@H](CN(C)C(=O)c1ccccc1)OCCCC[C@H](C)O2
 : 0.1%, x, u
C[C@@H]1CCCCO[C@H](CN(C)C(=O)Nc2ccccc2)[C@@H](C)CN([C@H](C)CO)C(=O)c2cc(NS(=O)(=O)c3cn(C)cn3)ccc2O1
 : 1.3%, x, 17%
COc1cccc(CNC[C@H]2O[C@@H](n3ccc(N)nc3=O)[C@H](O)[C@@H]2O)c1OCc1ccc(F)cc1Cl
 : -1.1%, x, -36%[inhibitor]
COc1ccc([C@H]2C[C@H](O)[C@@H](n3cc(C4CC4)nn3)CN2C(=O)C2CCCCC2)cc1
 : 0.8%, x, -22%
CSc1ncnc2c1ncn2CCCNCC(C)c1ccccc1 (stereo not given)
 : 1.8%, x, -18%
Cn1c(=O)c2c(-c3ccccc3)n(-c3ccccc3S)cc2n(C)c1=O
 : -0.8%, x, u
CN(CCCn1ccc(NC(=O)OCc2ccccc2)nc1=O)CCc1ccccn1
 : -2.9%, x, 3%
CC[C@@H](NCCCn1cnc2c(SC)ncnc21)c1ccccc1
 : 1.1%, x, -6%
CC1=C(C(=O)N(C)C)CC(CC(=O)NCc2cccs2)C(=O)N1Cc1ccccc1 (stereo not given)
 : 2.1%, x, -11%
Cc1cn([C@H]2C[C@H](O)[C@@H](CNC(=O)[C@H]3CCC(=O)N3)O2)c(=O)[nH]c1=O
 : -1.7%, x, 16%
Cc1ccc(S(=O)(=O)N2C[C@]3(O)C[C@@H]4C(=O)N(c5ccccc5)C(=O)[C@@H]4C[C@]3(OC(=O)NCc3ccco3)C2)cc1
 : 1.3%, x, -7%
C[C@H](CO)N1C[C@H](C)[C@@H](CN(C)S(=O)(=O)c2ccccc2)OCc2cn(nn2)CCCC1=O
 : 0.1%, x, 21%
COc1ccc(NC(=O)C[C@H]2C(=O)N(CCc3ccccc3)C[C@@H]2CSC)cc1
 : 1.3%, x, u
Cc1ccc(Cc2c(-c3ccccc3)nc3ccc(Cl)cn23)cc1
 : u, x, 12%
C[C@H]1CN(C2CCCCC2)C(=O)[C@@H]1CC(=O)Nc1ccccc1
 : -0.3%, x, u
C[C@H](CO)N1C[C@H](C)[C@@H](CN(C)S(=O)(=O)c2ccccc2F)OCc2cnnn2CCCC1=O
 : -4.2%, x, 43%
C[C@H]1CN([C@@H](C)CO)S(=O)(=O)c2ccc(-c3ccncc3)cc2O[C@H]1CN(C)C(=O)c1cccc(F)c1
 : -1.1%, x, 13%
CCN(CC)C(=O)C1=C(C)N(Cc2ccc(F)cc2)C(=O)C(CC(=O)NCc2ccco2)C1 (stereo not given)
 : 1.2%, x, 1%
Cc1cccc(NC(=O)c2nc[nH]c2C(=O)N[C@@H](C)CO)c1
 : -2.9%, x, 8%
CSc1ncnc2c1ncn2CCCNCc1cccc2ccccc12
 : 1.4%, x, -25%
O[C@H]1C[C@H](c2ccc(Cl)cc2)N(Cc2cccs2)C[C@@H]1n1cc(C2CC2)nn1
 : -2.0%, x, -12%
C[C@H]1CN([C@@H](C)CO)C(=O)c2cc(C#CCC3CCCC3)cnc2O[C@@H]1CN(C)C(=O)CC1CC1
 : -2.9%, x, 12%
CSc1ncnc2c1ncn2CCCN1CCN(C(=O)C2CC2)CC1
 : 1.3%, x, u
O=C(Nc1ccn(CCCN2CCN(c3ccccc3)CC2)c(=O)n1)OCc1ccccc1
 : -0.2%, x, -8%
Cc1cccc(S(=O)(=O)N(C)C[C@H]2OCc3cnnn3CCCC(=O)N([C@H](C)CO)C[C@H]2C)c1
 : -1.2%, x, 6%
CC(C)CC#Cc1ccc2c(c1)O[C@H](CN(C)C(=O)Nc1ccccc1)[C@@H](C)CN([C@H](C)CO)S2(=O)=O
 : -1.9%, x, 8%
C[C@@H]1CN([C@@H](C)CO)C(=O)CCCn2nncc2CO[C@H]1CN(C)S(=O)(=O)c1cccc(C#N)c1
 : 1.0%, x, -35%[inhibitor]
O=c1c2cc(C(F)(F)F)ccc2sn1-c1ccccc1
 : -1.7%, x, u
C[C@@H]1CN([C@@H](C)CO)S(=O)(=O)c2ccc(Br)cc2O[C@@H]1CN(C)C(=O)c1ccccn1
 : 0.2%, x, 11%
CC1=C(C(=O)N(C)C)CC(CC(=O)NC2CCCCC2)C(=O)N1CCC1=CCCCC1 (stereo not given)
 : 1.4%, x, -21%
COc1ccccc1C(=O)N1CCN(c2nc3cc(C)cc(C)c3cc2C#N)CC1
 : -16%, x, u
COc1ccc(N2C[C@H](CSC)[C@@H](CC(=O)Nc3ccc(Br)cc3)C2=O)cc1
 : -4.0%, x, u
C[C@@H]1CN([C@H](C)CO)C(=O)c2c(c3ccccc3n2C)-c2ccccc2CO[C@@H]1CN(C)C(=O)Nc1ccccc1C(F)(F)F
 : 0.6%, x, -28%
O=C(NCc1cc(C(F)(F)F)ccc1Cl)c1cccc2c1C(=O)c1ccc(N3CCC(N4CCCCC4)CC3)cc1S2(=O)=O
 : -1.0%, x, u
C[C@H](CO)N1C[C@H](C)[C@@H](CN(C)Cc2ccncc2)OCc2cnnn2CCCC1=O
 : 0.0%, x, 1%
CCOC(=O)[C@@H](NC(=O)CC[C@H]1O[C@@H](n2cc(C)c(=O)[nH]c2=O)C[C@@H]1O)C(C)C
 : -0.7%, x, -18%
COc1ccccc1S(=O)(=O)N(C)C[C@@H]1OCc2cnnn2CCCC(=O)N([C@H](C)CO)C[C@@H]1C
 : -4.7%, x, 4%
O=C(Nc1ccn(CCCN2CCN(c3ncccn3)CC2)c(=O)n1)OCc1ccccc1
 : 1.0%, x, 40%
COc1ccc(-c2cc3nc(C)c(C)c(N4CCN(C(=O)c5ccoc5)CC4)n3n2)cc1
 : -13%, x, 7%
Cc1cn([C@H]2C[C@H](O)[C@@H](CNCc3ccc(C#CCCO)cc3)O2)c(=O)[nH]c1=O
 : -0.5%, x, u
O=C(C[C@H]1C(=O)N(Cc2ccccc2)C[C@@H]1Cc1ccccc1)Nc1ccc(Br)cc1
 : -2.0%, x, 2%
O=C(Cn1sc2ccccc2c1=O)Nc1ccc(F)cc1
 : -3.8%, x, -6%
Fc1ccc(-c2nc3c4ccccc4ccn3c2Cc2ccccc2)cc1
 : u, x, 17%
COc1ncnc2c1ncn2CCCNCc1ccco1
 : -3.4%, x, -25%
C[C@@H]1Cn2cnc(C(=O)NCC(=O)OC(C)(C)C)c2C(=O)N1
 : -0.5%, x, -15%
Cc1cn([C@H]2C[C@H](O)[C@@H](CNC(=O)[C@H](N)Cc3cscn3)O2)c(=O)[nH]c1=O
 : 0.8%, x, 5%
COc1ccc(CN(C)CCCn2ccc(NC(=O)OCc3ccccc3)nc2=O)cc1OC
 : 0.5%, x, -1%
CC1(C2CCC3(C)OC3C2)CO1 (stereo not given)
 : 1.8%, 8%, x
COC(=O)CCC(C)C1CCC2C3CCC4CC(O)CCC4(C)C3CC(O)C12C (stereo not given)
 : 0.8%, -18%, x
COc1cc2c(c(OC)c1CC=C(C)C)C[C@H](c1ccc(O)cc1O)CO2
 : -14%, 6%, x
O=C1c2cc(O)cc(O)c2C(=O)c2c1cc(O)c([C@@H](CO)CCO)c2O
 : 0.8%, -11%, x
O=C1C=C(O)c2c(O)cc(O)c(O)c2C1=O
 : 2.0%, -30%, x
C=CCOC(=O)c1ccccc1C(=O)OCC=C
 : -1.0%, -4%, x
CCCCC(CC)CO (stereo not given)
 : -6.2%, 4%, x

Remaining list, next part:
Results follow in this order: ClpP mod, gsp antagonist, gsp agonist
N#C[C@H]1C(O)C(O)c2ccccc2N1C(=O)c1ccccc1 (stereo not given in full)
 : 2.2%, 6%, x
CC(C)=CCC12Oc3cc(O)ccc3C1(O)Oc1cc(O)c([C@H]3C=C(C)CC(c4ccc(O)cc4O)[C@H]3C(=O)c3ccc(O)cc3O)c(O)c1C2=O (stereo not given in full)
 : -0.3%, u, x
C[C@@H]1CC[C@@]23COC(=O)C2=CCC[C@@H]3[C@@]1(C)CC/C(=C/CO)CO
 : 1.2%, -12%, x
C=CC[C@@]12C=C(OC)C(=O)C(OC)=C1O[C@H](c1ccc3c(c1)OCO3)[C@H]2C
 : -1.7%, -2%, x
O=C(O)c1ccn[nH]1
 : -1.6%, -24%, x
CC(C)=CCc1cc(-c2oc3cc(O)cc(O)c3c(=O)c2O)ccc1O
 : 0.8%, 2%, x
COCOc1cc(O)c(C(=O)/C=C/c2ccc(OCOC)c(OCOC)c2)c(OCOC)c1
 : -0.6%, -19%, x
O=C1C=CC[C@H](/C=C/C[C@@H](O)C[C@H](O)CCc2ccccc2)O1
 : -23%, 2%, x
CC1(C)C[C@@H](O)[C@]2(C)CC[C@]3(C)C(=CCC4[C@@]5(C)CC[C@H](O)[C@](C)(CO)C5CC[C@]43C)[C@@H]2C1 (stereo not given in full)
 : -0.9%, 8%, x
COC(=O)c1ccc[n+](CCc2c[nH]c3ccccc23)c1
 : 0.6%, 6%, x
O=C1NCC(=O)N2CCC[C@@H]12
 : -1.0%, 7%, x
O=C1c2cc(CO)cc(O)c2C(=O)c2c(O[C@@H]3OC(CO)[C@@H](O)[C@@H](O)[C@@H]3O)cccc21 (stereo not given in full)
 : -0.9%, 8%, x
CC1=C(O)C(=O)C(C2=C(O)C(=O)C(C)=C(O)C2=O)=C(O)C1=O
 : 1.8%, 3%, x
Cc1ccc2oc3ccccc3c(=O)c2c1
 : 4.3%, 1%, x
O=C1c2c(O)cc(O)cc2O[C@H](c2ccc(O)cc2)[C@H]1O
 : 0.1%, -7%, x
O=C(O)[C@H](O)[C@@H](O)C(=O)O
 : -2.1%, 6%, x
O=C1C=C(C2OC(CO)C(O)C2O)C(=O)N1 (stereo not given)
 : -0.6%, 13%, x
C[C@@]12CC[C@H]3OC(=O)C=C3C1CC[C@@]13CC(CCC12)[C@](CO)(O[C@H]1O[C@H](CO)[C@@H](O)[C@H](O)[C@H]1O)C3 (stereo not given in full)
 : 2.0%, 0%, x
C=CC[C@]12C=C(OC)C(=O)C=C1O[C@@H](c1ccc3c(c1)OCO3)[C@H]2C
 : 0.2%, -11%, x
